Screening results (PubChem BioAssay)
OX1R antag: blocks the human orexin 1 receptor. CHO/OX1R cells, Fluo-8 calcium fluorescence, orexin A. inhibition, % at 5 µM. 330,000 compounds, 0.43% hits;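 active means inhibition above its plate's threshold, mean inhibition of all tested compounds on the plate plus 3 SD, cut at about 37% in these data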;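 further: 0% = orexin A challenge wells and 100% = SB-334867-A antagonist wells; not every result past the cut was called active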
Target sequence (O43613 whole entry, looked up): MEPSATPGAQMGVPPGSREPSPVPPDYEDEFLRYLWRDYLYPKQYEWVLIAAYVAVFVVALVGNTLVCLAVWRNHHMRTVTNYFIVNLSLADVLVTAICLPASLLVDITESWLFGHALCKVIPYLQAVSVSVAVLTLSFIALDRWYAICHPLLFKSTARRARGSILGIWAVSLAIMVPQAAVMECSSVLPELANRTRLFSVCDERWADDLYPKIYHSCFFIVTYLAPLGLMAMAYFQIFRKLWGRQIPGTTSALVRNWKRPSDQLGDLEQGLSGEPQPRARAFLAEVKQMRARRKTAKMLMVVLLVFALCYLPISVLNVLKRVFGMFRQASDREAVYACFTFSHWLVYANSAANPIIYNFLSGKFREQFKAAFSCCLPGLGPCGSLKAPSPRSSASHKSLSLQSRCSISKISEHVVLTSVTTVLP
Numbers without * were called inactive. These rows are one share of the data, and most or all hits are left out here.

OX1R antag	SMILES
-6	CCN(C(=O)COC(=O)/C=C/c1nc2ccccc2s1)C1CCS(=O)(=O)C1 (configuration not stated)
-18	O=C1COc2ccc(C(=O)COC(=O)CNC(=O)c3ccco3)cc2N1
-15	O=C(O)CNC(=O)C1CCCN1C(=O)CNC(=O)OCc1ccccc1 (configuration not stated)
-9	Cc1ccc(-n2c(N)c(C(=O)N3CCOCC3)sc2=S)cc1
-42	COc1cc(C(=O)Nc2cccc(-c3cn4cccnc4n3)c2)cc(OC)c1OC
-21	O=C(CNC(=O)c1cc2ccccc2o1)NCc1cccs1
-6	COc1cc2c(cc1OC)CN(CC(=O)Nc1ccc(S(=O)(=O)N3CCCC3)cc1)CC2
-7	CCCCc1c(O)nc(SCCN(C)C)n(-c2ccccc2)c1=O
-4	Clc1ccccc1-c1nc(-c2ccc(Br)o2)no1
-1	Cc1ccc2c(c1)C(O)(C1COC(C)(C)CC1=O)C(=O)N2C (configuration not stated)
-15	CC(C)(C)OC(=O)N1Cc2ccccc2C[C@H]1C(=O)O
-19	Cc1ccc(C(=O)N2CCCC(Nc3cccc(F)c3)C2)cc1N1CCNC1=O (configuration not stated)
-13	COc1ccc(OC(=O)c2ccncc2)cc1
7	NC(=O)c1ccccc1-c1nc(-c2ccccc2)no1
-5	COc1ccc(-c2cn(CCO)nc2-c2ccc(OC)cc2)cc1

The closing 6 entries of the section before lead into the next:
OX1R antag	SMILES
-1	Cc1ccc2c(c1)C(O)(C1COC(C)(C)CC1=O)C(=O)N2C (configuration not stated)
-15	CC(C)(C)OC(=O)N1Cc2ccccc2C[C@H]1C(=O)O
-19	Cc1ccc(C(=O)N2CCCC(Nc3cccc(F)c3)C2)cc1N1CCNC1=O (configuration not stated)
-13	COc1ccc(OC(=O)c2ccncc2)cc1
7	NC(=O)c1ccccc1-c1nc(-c2ccccc2)no1
-5	COc1ccc(-c2cn(CCO)nc2-c2ccc(OC)cc2)cc1
-31	COc1cc(CN2CCCC(C(=O)c3ccccc3SC)C2)cc(OC)c1 (configuration not stated)
-8	OCCN1CCN(CC(O)C(F)(F)F)CC1 (configuration not stated)
-31	CCCCn1c(SCC(=O)OCC)nc2c(sc(=S)n2-c2ccccc2OC)c1=O
-1	CC12CN3CCN(CC(C3)C1(O)CN1CCCCC1)C2 (configuration not stated)
-30	CC(C)(C)c1ccc(-c2noc(CCC(=O)NCC3CCCO3)n2)cc1 (configuration not stated)
-24	Cc1ccc(S(=O)(=O)c2cc3c(=O)n4ccccc4nc3n(C3CCCCC3)c2=N)cc1
-15	COc1ccc(-c2coc3c(CN4CCCCC4C)c(O)ccc3c2=O)cc1 (configuration not stated)
6	O=C(CCC1CCCCC1)NNC(=O)c1cnccn1
-6	CC(C)OC(=O)/C(C#N)=C/c1c[nH]c2ccccc12
-14	Cc1ccc2nc(SCCCCOc3ccccc3)[nH]c2c1
-7	c1ccc(-n2nnc3ccccc32)nc1
-9	O=C(Nc1cccc(S(=O)(=O)N2CCOCC2)c1)c1cn(-c2ccccc2)nc1-c1ccc(F)cc1
-11	COc1cc(CCCN2CCNC[C@@H]2Cc2ccc(O)cc2)cc(OC)c1OC
-14	O=C(Oc1ccc(NC2=NS(=O)(=O)c3ccccc32)cc1)c1cccnc1
-5	CC(c1ccccc1)n1c(-c2ccncc2)n[nH]c1=S (configuration not stated)

Pulled one by one from the list above:
OX1R antag	SMILES
-19	Cc1ccc(C(=O)N2CCCC(Nc3cccc(F)c3)C2)cc1N1CCNC1=O (configuration not stated)
-31	COc1cc(CN2CCCC(C(=O)c3ccccc3SC)C2)cc(OC)c1 (configuration not stated)
-15	O=C(O)CNC(=O)C1CCCN1C(=O)CNC(=O)OCc1ccccc1 (configuration not stated)
-42	COc1cc(C(=O)Nc2cccc(-c3cn4cccnc4n3)c2)cc(OC)c1OC
-8	OCCN1CCN(CC(O)C(F)(F)F)CC1 (configuration not stated)
-7	CCCCc1c(O)nc(SCCN(C)C)n(-c2ccccc2)c1=O
-14	Cc1ccc2nc(SCCCCOc3ccccc3)[nH]c2c1

New compounds follow:
OX1R antag	SMILES
8	Cc1nc2c(C(=O)O)cnn2c(C)c1Cc1ccccc1F
1	COc1ccc(C)c(S(=O)(=O)Nc2ccc(OCC(=O)O)cc2)c1
7	N#Cc1ccc(OCC(O)CS(=O)(=O)c2ccc(F)cc2)cc1 (configuration not stated)
-42	CCOc1ccccc1NC(=O)CSc1nnc(CNC(=O)COc2ccc(Cl)cc2)o1
2	O=C(c1ccco1)N1CCN(C(=O)c2cccc3c2C(=O)N(Cc2cccnc2)C3)CC1
-19	COc1ccc(N2CC(C(=O)Nc3ccc(N4CCOCC4)cc3)CC2=O)cc1 (configuration not stated)
-25	O=C(NCc1ccccc1)N1CCC(c2nc3ccccc3[nH]2)CC1
-17	CCCOc1ccccc1C1NC(=O)NC(C)=C1C(=O)OCCOC(C)C (configuration not stated)
-19	COc1ccccc1C(=O)NC1CCCCCCC1
-15	COc1ccccc1N1CCN(CC(=O)c2ccc3ccn(C(C)=O)c3c2)CC1
-40	CSC1=NCCN1S(=O)(=O)c1ccc2ccccc2c1
-27	Cc1cc(C)cc(N(C(=O)c2csnn2)C(C(=O)NC(C)(C)C)c2ccncc2)c1 (configuration not stated)
-24	O=C(C1CCN(c2nnc(-n3cccc3)s2)CC1)N1CCc2ccccc2C1
-12	CSc1cccc(NS(=O)(=O)c2cccc3nsnc23)c1
-10	CCCC(=O)Nc1cc2c(cc1C(C)=O)OCCO2
-4	Cc1ccccc1OCC(=O)NC(Cc1c[nH]c2ccccc12)C(=O)O (configuration not stated)
-5	Cc1ccc(C(=O)Nc2ccccc2C(N)=O)o1
-7	COc1cc(OC)cc(C(=O)NNC(=O)NC2CCCCC2)c1
0	Cn1nc(C(F)(F)F)c(-c2cccc(C(F)(F)F)c2)c1NC(=O)c1cccnc1
-18	CCOC(=O)c1[nH]c(CSc2nnnn2-c2ccccc2C)c(C(=O)OCC)c1C
-20	COc1ccc(OC)c2c1sc(=NC(=O)C1CCCCC1)n2C
-25	S=C(Nc1ccc(Cl)cc1Cl)Nc1ccccc1Oc1ccccc1
-17	Cc1cccc(-n2c(CNC(=O)Cc3ccccc3)n[nH]c2=S)c1
14	CNc1nn(-c2cccc(Cl)c2)nc1N
1	CCOC(=O)c1nn(-c2c(C)n(C)n(-c3ccccc3)c2=O)cc1O
-8	CC(C)Nc1nc(Oc2cccc(Cl)c2Cl)cc(C(F)(F)F)n1
-24	O=C(OC1CO[C@H]2O[C@@H]1[C@H](OC(=O)c1ccccc1)[C@H]2OC(=O)c1ccccc1)c1ccccc1 (some centres not stated)
6	Cc1cc(C)cc(NS(=O)(=O)c2ccc3[nH]c(=O)[nH]c3c2)c1
-25	CCOc1ccc2c(c1)C(C)=CC(C)(C)N2C(=O)Nc1ccccc1
-6	COc1cccc(C(c2c(N)[nH]c(=S)[nH]c2=O)c2c(N)[nH]c(=S)[nH]c2=O)c1
-9	CN(C)Cc1c(C#N)c2ccccc2n1C
-49	CCc1ccc(N(C(=O)c2snc(C(N)=O)c2N)C(C(=O)NCC2CCCO2)c2cccs2)cc1 (configuration not stated)
-25	Cn1ncc(Br)c1C(=O)Nc1c(F)c(F)cc(F)c1F
-11	Cc1ccc([N+](=O)[O-])c2c1C(N1CCCCC1)C(C)(C)O2 (configuration not stated)
30	O=S(=O)(Nc1cccc2cccnc12)c1ccccc1
-17	COc1cnc(SCc2ccc(Cl)cc2Cl)nc1Cl
-24	CC(=O)c1ccc(N2CCN(C(=O)Nc3ccc(F)cc3F)CC2)cc1
-24	COC(=O)c1c(C)nc(C)c(C(=O)OC)c1-c1ccc(OC)cc1
-16	O=C(/C=C/Nc1ccc(F)c(F)c1)c1cccs1
-15	Cc1ccc(-n2nc3c([n+]2[O-])CCc2c-3no[n+]2[O-])cc1
-27	O=C(CCCNS(=O)(=O)c1cccc2nsnc12)NCCN1CCN(c2ccccc2F)CC1
-7	O=C(CNc1cccc(S(=O)(=O)N2CCCC2)c1)Nc1cccc(F)c1
-10	CC(=O)Cn1c(CN2CCCC2)nc2ccccc2c1=O
-33	Fc1cccc(Cc2noc(CN3CCCN(C4Cc5ccccc5C4)CC3)n2)c1
-23	Nc1c(-c2cccs2)cnn1-c1nc(-c2ccc(F)cc2)cs1
-39	CCOC(=O)C1C(=O)C=C(c2cccs2)CC1c1ccccc1 (configuration not stated)
-8	CCCC1CCc2[nH]nc(C(=O)NN)c2C1 (configuration not stated)
-18	CCOC(=O)N1CCN(Cc2cn3ccccc3n2)CC1
-24	Cc1ccc(S(=O)(=O)N(CCC#N)C2CCCCC2)c2nsnc12
2	O=C(CSc1nccc(=O)[nH]1)Nc1cc(C(F)(F)F)ccc1N1CCOCC1
-15	Cc1cc(F)ccc1S(=O)(=O)N1CCCOC1CNC(=O)C(=O)NCc1ccc2c(c1)OCO2 (configuration not stated)
-20	CCC(=O)c1ccc(OCC(=O)OCC(=O)c2cc(C)n(CC3CCCO3)c2C)cc1 (configuration not stated)
-14	Cc1noc(C)c1COc1ccccc1C(=O)NCCc1ccc(S(N)(=O)=O)cc1
-12	CC(=O)c1sc(C(=O)O)c(-c2ccco2)c1-c1ccco1
-19	COCCn1c(N)c(S(=O)(=O)c2cccs2)c2nc3ccccc3nc21
-8	CCOC(=O)c1sc2nc(CC(=O)OC)nc(NCc3ccc(F)cc3)c2c1C
-7	CC1=C(C(=O)OC(C)C)C(c2ccc3c(c2)OCO3)NC(=O)N1 (configuration not stated)
-27	CCCn1c2ccccc2c2cnn(CC(=O)N3CCN(C4CCCCC4)CC3)c(=O)c21
-22	CCCOc1ccc(OCCNC2CCCC2)cc1
-25	CCOc1ccc2ccccc2c1/C=N/NC(=O)c1ccc(C)nc1

(list continues)
OX1R antag	SMILES
-7	Cc1cccc2nc(CSc3ccccc3C(=O)O)cn12
-10	CN(C)S(=O)(=O)c1cccc(NC(=O)c2cc(=O)[nH]c(=O)[nH]2)c1
-11	Nc1c(S(=O)(=O)c2ccccc2)c2nc3ccccc3nc2n1Cc1ccco1
-27	CCCCOC(=O)Nc1nnc(CC(=O)NCc2ccccc2)s1
5	FC(F)(F)c1cccc(-c2nc(COc3ccc(Cl)cc3Cl)no2)c1
-41	CCOC(=O)C1CCN(C(=O)Cn2cnc3sc(C)c(S(=O)(=O)N4CCC(C)CC4)c3c2=O)CC1
5	CCC(=O)Nc1ccc(NC(=O)CSc2nnc(-c3ccco3)n2C)cc1
-4	COCCN(CCOC)C(=O)c1c[nH]c2ccc(S(=O)(=O)N(C)c3ccc(F)cc3)cc2c1=O
-12	CC(=O)C(Cc1ccccc1)NC(=O)CN(C)Cc1ccccc1Cl (configuration not stated)
-27	Cc1cc(C(=O)NC(C)CCc2ccccc2)ccc1[N+](=O)[O-] (configuration not stated)
-11	Cc1cccc(C)c1OCc1n[nH]c(=S)n1-c1ccccc1
7	N#CCC(=O)Nc1ccc(C(=O)OCC(=O)c2ccc3c(c2)OCO3)cc1
-30	CC(C)OC(=O)Nc1ccc2c(c1)N(C(=O)CCN1CCOCC1)c1ccccc1CC2
-14	COc1ccc(NS(=O)(=O)c2cc3c(cc2C)NC(=O)CO3)c(OC)c1
-30	Cc1ccccc1S(=O)(=O)Cc1ccc(C(=O)NCCN(Cc2ccccc2)C(C)C)o1
-9	O=C(NNC(=O)c1ncc(Cl)c(Cl)c1Cl)c1ccc(F)cc1
-14	Cc1cccn2cc(CCNC(=O)c3ccc(Br)o3)nc12
-68	COc1cccc2cc(C(=O)C3=C(O)C(=O)N(CCN4CCOCC4)C3c3ccc(C(C)(C)C)cc3)oc12 (configuration not stated)
1	O=C(CNC(=O)c1ccc(Br)o1)NCC1CCCO1 (configuration not stated)
0	N=c1c2c(ncn1CCCO)Oc1cc(O)ccc1C2c1ccccc1 (configuration not stated)
-33	CC1CCc2sc(C(=O)NCc3ccc(F)cc3)cc2C1 (configuration not stated)
7	CN(C(=O)CSc1nnc(-c2cccs2)o1)C1CCS(=O)(=O)C1 (configuration not stated)
-22	CCN(CC)CC(=O)c1c(N)n(Cc2ccccc2)c(=O)n(C)c1=O
-23	O=C(NNC1CC(=O)N(c2ccc(Br)cc2)C1=O)c1ccco1 (configuration not stated)
-6	CNc1nc(OC)nc(N2CCOCC2)n1
-13	CCNc1c(NS(=O)(=O)c2ccc([N+](=O)[O-])cc2)c(=O)oc2ccccc12
-10	O=C(Nn1cnnc1)C1Cc2ccccc2CN1S(=O)(=O)c1ccc(F)cc1 (configuration not stated)
-17	CCNC(=S)N1CCC(C(N)=O)CC1
3	C/C(=N\NC(=O)Cc1c(C)[nH][nH]c1=O)c1cccc(Br)c1
-25	Nc1c(Cl)cc(Cl)cc1C(=O)OCC(=O)N1CCCC1
-40	O=C(c1cc(-c2ccc(Cl)s2)nc2ccccc12)N1CCCC1
-22	O=C(CN1CCN(C(c2ccccc2)c2ccccc2)CC1)N1CCN(c2ccccc2)CC1
4	Cc1ccc(C)c(NC(=O)NCc2ccccn2)c1
-12	CCS(=O)(=O)CCSc1nc2c(cc1C#N)CCCC2
-3	CCC(=O)NC1(Cc2ccc(O)cc2)CCCCC1
-15	O=[N+]([O-])c1cccc(/C=N/N2CCN(Cc3ccccc3)CC2)c1
-23	CCSc1nc2sc3c(c2c(=O)n1-c1ccc(OC)cc1)CCN(C)C3
-3	CC(C)c1ccc(CNc2ccc3c(c2)ncn3C)cc1
-7	Cc1cccc(NC(=O)c2ccc(S(=O)(=O)N3CCN(C)CC3)cc2)c1C
-28	O=C(Nc1ccccc1N1CCN(C(=O)c2ccccc2)CC1)c1cccc(Cl)c1
6	COCC(=O)Nc1cc(C(=O)OC)cc(C(=O)OC)c1
-21	CCN(Cc1ccncc1)Cc1nc(Cc2ccccc2Cl)no1
-46	CCOC(=O)N1CCC(N2CCCC(C(=O)c3ccc4cc(OC)ccc4c3)C2)CC1 (configuration not stated)
-11	COCC(C)NC(=O)c1cccc(Cl)c1 (configuration not stated)
-10	CCCOc1ccc(S(=O)(=O)N2CCCC2)cc1[N+](=O)[O-]
